Screening data (PubChem BioAssay)
AID923 = qHTS Assay for Allosteric/Competitive Inhibitors of Caspase-1: Spectroscopic Profiling in AFC Spectral Region; compound fluorescence, AFC spectral region (405/520 nm); almost no hit is shown here; Potency, µM (top dose mostly 57.5 µM), for the others: at the highest dose fluorescence increase, hits mostly activators; actives 1.1% (n = 75,000); AID 923, 2007; active means well fitted activation curve with a large enough effect; inconclusive means small, poorly fitted or top-dose-only effect;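 further: potency means the concentration at half of the fitted maximal effect; 0% is about no effect; scaled to a free AFC standard on each plate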
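Compound autofluorescence profiled at 405 nm ex/520 nm em during kinetic caspase 1 run (50 nM enzyme, 5 uM Ac-WEHD-AFC, HEPES pH 7.5, 10 mM DTT). Titration up to 57 uM; baseline from regression intercept, normalized to AFC standard curve.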
A488 autofl = A488 region autofluorescence; max dye equivalency, M; actives 0.1% (n = 59,000); compound autofluorescence, A488 spectral region, dye equivalency; stronger effect = higher value; active = above 10 nM dye equivalent; inconclusive = 1 to 10 nM; inactive = 1 nM or less; about half of its hits are not listed in these tables;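 further: highest value over a series up to 38 µM; compound alone in buffer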
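Compounds pin-transferred into 100 mM Tris buffer, pH 8.0, incubated 15 min at room temperature, then imaged with 480 nm excitation/540 nm emission filters. Fluorescence converted to Alexa 488 dye-equivalent concentration via an on-plate six-point A488 standard curve.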
A647 autofl = compound autofluorescence in A647 spectral region | Compound fluorescence, A647 channel (570/671 nm), Tris buffer | max dye-equivalent concentration, M | 59,000 tested, under 10 active | AID 592; active means above 1 µM dye equivalent; inconclusive means 0.1 to 1 µM; inactive means 0.1 µM or less;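 further: values scaled relative to a standard on each plate; highest value over a series up to 38 µM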
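Each compound's intrinsic fluorescence at 570 nm excitation and 671 nm emission is measured across its concentration series in 100 mM Tris, pH 8.0, after 15 min at room temperature, and reported relative to an A647 curve.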
TSHR agonist = agonists of human thyroid stimulating hormone receptor; P16473; HEK293-CNG-TSHR cells (CNG channel as cAMP sensor), membrane potential dye, cAMP; Potency, µM (top dose mostly 57.1 µM), without a hit: at the highest dose activation, usual class: activators; actives 0.48% (n = 73,000); AID 926; active = well fitted activation curve of enough size with the parental cells flat; inconclusive = any curve in the parental cells; inactive = parental cells flat and receptor cells flat or falling; further: potency means the concentration at half of the fitted maximal effect; % of control where 0% means no effect; weak receptor curves with flat parental cells got no call and are not listed
Target sequence (P16473 whole entry, looked up): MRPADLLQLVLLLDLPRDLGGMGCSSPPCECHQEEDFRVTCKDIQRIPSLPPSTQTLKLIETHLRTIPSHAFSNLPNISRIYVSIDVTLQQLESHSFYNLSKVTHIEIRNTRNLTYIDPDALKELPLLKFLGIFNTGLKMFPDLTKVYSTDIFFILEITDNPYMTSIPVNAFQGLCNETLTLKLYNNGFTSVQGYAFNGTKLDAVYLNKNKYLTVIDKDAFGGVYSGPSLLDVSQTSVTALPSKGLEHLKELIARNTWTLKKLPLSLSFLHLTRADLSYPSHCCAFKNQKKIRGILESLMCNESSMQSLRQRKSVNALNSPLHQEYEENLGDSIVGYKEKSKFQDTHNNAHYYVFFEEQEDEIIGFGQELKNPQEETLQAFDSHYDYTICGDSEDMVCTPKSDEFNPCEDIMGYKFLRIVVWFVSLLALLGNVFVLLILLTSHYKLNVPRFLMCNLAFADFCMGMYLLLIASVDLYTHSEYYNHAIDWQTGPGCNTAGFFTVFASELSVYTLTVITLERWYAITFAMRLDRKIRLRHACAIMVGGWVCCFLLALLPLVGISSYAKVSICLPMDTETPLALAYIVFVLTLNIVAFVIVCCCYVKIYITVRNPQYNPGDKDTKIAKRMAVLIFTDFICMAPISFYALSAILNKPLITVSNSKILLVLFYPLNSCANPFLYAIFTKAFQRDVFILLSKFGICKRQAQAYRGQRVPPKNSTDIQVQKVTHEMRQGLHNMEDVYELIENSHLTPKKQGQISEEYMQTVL
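HEK 293 cells stably expressing TSHR and a modified CNG channel, with CNG-only parental cells as counterscreen, were preloaded 60 min at room temperature with membrane potential dye containing 100 uM RO 20-1724. Compound exposure was 30 min, and depolarization was read as fluorescence at 590 nm.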
Resorufin fluor = compounds fluorescent in resorufin spectral region. Compound fluorescence, resorufin region 547/598 nm, buffer; stronger effect = higher value. max dye-equivalent concentration, M. actives 0.04% (n = 59,000). AID 588; active = above 10 nM dye equivalent; inconclusive = 1 to 10 nM; inactive = 1 nM or less; a few of its hits are not listed in these tables; further: highest value over a series up to 38 µM
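Compounds in 100 mM Tris, pH 8.0, incubated 15 min at room temperature, then fluorescence read at 547 nm excitation/598 nm emission. Signal converted to dye-equivalent concentration via an on-plate six-point resorufin standard curve, per compound concentration.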
* marks the source's active call; other numbers are inactive results; i = inactive; ? = inconclusive; nt = not tested or not shown; & = joins results of further samples; [ ] = another dose, or the depositor's remark. The list is partial; count on the stated rates, not on these rows.

SMILES	AID923	A488 autofl	A647 autofl	TSHR agonist	Resorufin fluor
CCN(CC)S(=O)(=O)c1ccc(C(=O)C(C#N)c2ccccn2)cc1 (centres undefined)	0.7%	i	6.7e-09	-5%	i
CCOC(=O)C1CCCN(C(=O)CNC(=O)Cn2ccc3ccccc3c2=O)C1 (centres undefined)	-1.4%	i	1e-09	2%	i
COC(=O)c1ccc(CSc2nc(N3CCOCC3)c3c(c2C#N)CC(C)(C)OC3)o1	nt	i	4.1e-08	nt	i
Cc1cc(C(=O)Nc2cccnc2)on1	-0.2%	nt	nt	3%	nt
COc1cccc(N2CCN(C(=O)C3CCCN(S(=O)(=O)c4cnc[nH]4)C3)CC2)c1 (centres undefined)	-1.2%	nt	nt	?	nt
COCCN(C(=O)Cc1cccs1)c1nnc(-c2ccncc2)s1	-1.3%	i	1e-09	8%	i
CCC(C)(C(=O)NC1CCCC1)N(CC1CCCO1)C(=O)CNC(=O)c1ccccc1 (centres undefined)	-0.1%	i	1.2e-09	3%	i
CCOc1cccc(N2C(=O)CC(n3cnc4ccccc43)C2=O)c1 (centres undefined)	0.5%	i	5.7e-09	4%	i
Clc1ccc(Cn2cccc2C2=NCCO2)cc1	-0.5%	i	3.8e-09	15%	i
CC(C)C12CN3CC(C(C)C)(CN(C1)C31C(=O)Nc3ccccc31)C2=O (centres undefined)	0.2%	nt	nt	13%	nt
O=C(CSc1nnc(Cc2ccccc2)o1)Nc1ccc(Br)cn1	-4.9%	i	1.5e-09	-3%	i
O=C(O)c1ccccc1C(=O)Nc1n[nH]c(=S)s1	-1.2%	i	1e-09	-1%	i
O=C(NCc1cccnc1)c1c(F)c(F)c(F)c(F)c1F	1.1%	i	3.2e-09	4%	i
Cc1cc(C)c(S(=O)(=O)N(C)Cc2cnn(C)c2)c(C)c1	-0.9%	i	3.1e-09	16%	i
C[C@H](N)c1nnc(SCc2ccc(Cl)cc2Cl)o1	-1.9%	i	1e-09	24%	i
COc1ccc(C2=NOC(C(=O)NCc3ccc(F)cc3)C2)cc1OC (centres undefined)	1.6%	i	3.1e-08	21%	i
Clc1ccccc1-c1nnc2sc(-c3ccc4c(c3)OCO4)nn12	0.4%	i	1.2e-08	?	i
CC(=O)OC(C)C[N+](C)(C)C (centres undefined)	-0.4%	i	3.8e-08	nt	i
CN(CCNC(=O)CN1CCN(Cc2ccccc2Cl)C1=O)Cc1ccccc1	1.6%	i	1e-09	9%	i
COc1ccccc1N1CCN(S(=O)(=O)c2ccccc2F)CC1	-1.1%	i	1.2e-08	12%	i
O=P(c1ccccc1)(c1ccccc1)C(c1ccco1)N1CCOCC1 (centres undefined)	-0.2%	i	1.6e-08	?	i
O=C(Cn1nnc(-c2ccc3c(c2)OCO3)n1)N1CCOCC1	1.7%	i	3.3e-09	5%	i
CCOC(=O)Nc1cc2c(C)cc(=O)oc2cc1C	-0.1%	i	1.4e-08	24%	i
Cc1ccc([C@@H](O)c2cnc(C)n2Cc2ccccc2)cc1	12%[11.5 µM]	i	1e-09	0%[11.4 µM]	i
CCOC(=O)C(C(C)=O)=C1SC2CS(=O)(=O)CC2S1 (centres undefined)	3.0%	i	2.9e-08	-14%	i

Shown bar-delimited: 5 of the compounds above
Structure | AID923 | A488 autofl | A647 autofl | TSHR agonist | Resorufin fluor
COC(=O)c1ccc(CSc2nc(N3CCOCC3)c3c(c2C#N)CC(C)(C)OC3)o1 | nt | i | 4.1e-08 | nt | i
Cc1cc(C(=O)Nc2cccnc2)on1 | -0.2% | nt | nt | 3% | nt
COc1cccc(N2CCN(C(=O)C3CCCN(S(=O)(=O)c4cnc[nH]4)C3)CC2)c1 (centres undefined) | -1.2% | nt | nt | ? | nt
COCCN(C(=O)Cc1cccs1)c1nnc(-c2ccncc2)s1 | -1.3% | i | 1e-09 | 8% | i
CCC(C)(C(=O)NC1CCCC1)N(CC1CCCO1)C(=O)CNC(=O)c1ccccc1 (centres undefined) | -0.1% | i | 1.2e-09 | 3% | i

Further compounds follow.
SMILES	AID923	A488 autofl	A647 autofl	TSHR agonist	Resorufin fluor
Cc1ccc(-c2nnc(SCC(=O)Nc3ccc(S(=O)(=O)N4CCCCCC4)cc3)o2)cc1	1.0%	i	1e-09	3%	i
CCCn1c(NC(=O)c2ccc(Cl)c(S(=O)(=O)N3CCCC3)c2)nc2ccccc21	3.0%	i	3.1e-08	?	i
CCOC(=O)C1=C(C)NC(C)=C(C(=O)OCC)C1C1=COCCO1	2.0%	i	4.5e-08	8%	i
O=c1cc2n(c(=O)[nH]1)CCC1=C2CCCC1	3.0%	i	7.6e-09	-2%	i
CCOC(=O)C1=C(C)Nc2ccccc2N=C1NC(=O)CCCN1C(=O)c2ccccc2C1=O	-1.5%	i	5.1e-08	-3%	i
COC(=O)c1cn(CC(=O)N2CCCCCC2)c2ccccc12	1.4%	i	4e-09	7%	i
Cc1noc(C)c1COC(=O)CCOc1ccccc1	3.4%	i	1e-09	13%	i
Cc1ccc(N2C(=O)c3ccccc3C2Nc2ccccc2F)nc1 (centres undefined)	-0.9%	nt	nt	?	nt
Cc1nnc(SCC(=O)Nc2nc3c(s2)CC(C)CC3)s1 (centres undefined)	-0.3%	i	3e-08	1%	i
COc1cc2oc(-c3ccccc3)cc(=O)c2cc1O	-0.3%	i	2.7e-09	0%	i
N#Cc1c(N)n(CCOC(=O)c2ccc(Cl)cc2)c2nc3ccccc3nc12	nt	i	1e-09	nt	i
O=C1C(O)CC2c3ccccc3CC3(CCCC3)N12 (centres undefined)	-1.7%	nt	nt	?	nt
CC1(C)S[C@@H]2[C@H](NC(=O)Cc3ccccc3)C(=O)N2[C@@H]1C(=O)O	-1.8%[11.5 µM]	i	7.8e-09	-1%[11.4 µM]	i
O=C(COC(=O)c1cnccn1)Nc1ccc(Cl)cc1	-1.2%	i	3.2e-09	?	i
CC1CCCCC1NC(=O)c1nn(C)c(=O)c2ccccc12 (centres undefined)	-1.1%	i	1e-09	?	i
CCOC(=O)N/N=C1/C[C@@H](O)[C@@H](O)[C@@H]2[C@@H]3C(=O)N([C@@H](C)c4ccccc4)C(=O)[C@H]3CC[C@@H]12	2.1%[11.5 µM]	nt	nt	3%[11.4 µM]	nt
Cc1[nH]n2c(=O)cc(C(C)C)nc2c1-c1ccccc1	-0.3%	i	3.3e-08	?	i
CC(=O)NC1(C(F)(F)F)C(=O)Nc2c1c(=O)n(C)c(=O)n2C (centres undefined)	nt	i	1e-09	nt	i
CCNC(=O)CSc1nc2ccccc2c(=O)n1OC	2.0%	i	1.9e-08	?	i
Cc1ccccc1OCCCN1CCCC1	-0.6%	nt	nt	9%	nt
Cc1cc(=O)[nH]c2c(C)c(N)ccc12	2.3%	i	1e-09	0%	i
COc1ccc(-c2nc(-c3ccc(Br)o3)no2)cc1OC	-1.6%	nt	nt	6%	nt
COC(=O)Nc1nc2ccc(Sc3ccccc3)cc2[nH]1	2.8%	i	1e-09&4.6e-08	-14%[25.6 µM]	i
C=CCn1c(SCC(N)=O)nnc1-c1ccccc1O	0.6%	i	3.9e-08	8%	i
CC(C)(C)c1ccc(-c2conc2N)cc1	-1.7%	i	6.1e-09	9%	i
The list goes on.
SMILES	AID923	A488 autofl	A647 autofl	TSHR agonist	Resorufin fluor
Cc1cc(NC(=O)CSc2nnc(Cc3cccn3C)n2CCc2ccccc2)no1	-1.6%	nt	nt	21%	nt
NO	-3.4%	i	3.5e-08	3%	i
CCc1[nH]nc2c1C(c1ccncc1)C(C#N)=C(N)O2 (centres undefined)	-1.0%	i	2.3e-08	3%	i
Cn1c(SCC(=O)NCCc2ccccc2)nnc1-c1ccncc1	-0.7%	i	1e-09	-3%	i
COCc1nnc(NC(=O)c2ccc(NC(C)=O)cc2)s1	-1.2%	i	1.9e-08	-6%	i
CCOC(=O)C1CCCN(c2nc3ccccc3nc2C(C#N)C(=O)OCCOC)C1 (centres undefined)	nt	i	2.7e-08	nt	i
CC1(C)C(=O)Nc2ccccc2N1C(=O)COc1ncnc2ccccc12	-2.0%	i	5.5e-09	1%	i
COC(=O)C1=C(C)NC(C)=C(C(=O)OC(C)C)C1c1cccc2nonc12 (centres undefined)	-2.4%	nt	nt	4%	nt
O=C(Cn1ncn2c(cc3ccccc32)c1=O)NCCC1=CCCCC1	1.2%	i	4.1e-08	?	i
O=S1(=O)CCN=C2SC3=C(CCCC3)N21	-3.0%	i	1e-09	1%	i
COC(=O)[C@@]1(Cc2ccc(F)cc2)[C@H]2c3cc(C(=O)N(C)C)n(Cc4ccc(Cl)c(C(F)(F)F)c4)c3C[C@H]2CN1C(=O)c1ccccc1	1.3%	nt	nt	?	nt
CC12CC(c3ccccc3O1)N(C(=O)c1ccco1)C(=O)N2c1ccccc1 (centres undefined)	0.0%	i	3.3e-08	?	i
CCC(=O)N1CCc2cc(S(=O)(=O)CCC(=O)Nc3cccc(F)c3)ccc21	1.5%	i	1e-09	0%	i
CCOC(=O)c1cnn(-c2cc(C)c3ccccc3n2)c1N	0.3%	i	1e-09	?	i
c1ccn2cc(CSC3=NCCS3)nc2c1	2.8%	i	3e-08	-3%	i
COc1ccc(C(CNC(=O)C2CC(=O)N(Cc3ccc(C)cc3)C2)N(C)C)cc1 (centres undefined)	-0.7%	i	2.1e-08	7%	i
CCN(Cc1ccccc1)C(c1ccccn1)c1nnnn1C(C)(C)CC (centres undefined)	-0.1%	i	1e-09	?	i
Cc1ccc(Oc2ccc(N)cc2)cc1	-1.0%	i	5.1e-09	2%[11.4 µM]	i
CCOC(=O)N1CCC(NC(=O)c2cccc3c2C(=O)N(c2ccc(OC)cc2)C3)CC1	-1.4%	nt	nt	7%	nt
CCOC(=O)CSc1nnc(-c2cccnc2)n1Cc1ccccc1	0.9%	i	1.8e-08	10%	i
COC(=O)Cn1c(=O)c2c(nc(Br)n2CC(=O)OC)n(C)c1=O	0.5%	i	4.1e-09	-7%	i
CCOC(=O)N1CCN(C2OC(=O)c3ccccc32)CC1 (centres undefined)	nt	i	4e-08	nt	i
CCOC(=O)c1c(-n2cnnn2)sc(C)c1C	-0.9%	i	1e-09	0%	i
Cc1cccc(OCc2nnc(SCC(=O)Nc3ccc(C)c(C)c3)o2)c1	0.6%	nt	nt	11%[11.4 µM]	nt
C=CCn1c(O)c(CN2CCOCC2)c(C)c(C#N)c1=O	6.8%	i	5.3e-09	-2%	i
More structures
SMILES	AID923	A488 autofl	A647 autofl	TSHR agonist	Resorufin fluor
COc1ccccc1-c1cc(C(=O)Nc2ccc(F)cc2F)no1	0.2%	i	1e-09	-3%[11.4 µM]	i
COc1ccc(-c2noc(CCC(N)=O)n2)cc1OC	0.0%	i	4.3e-09	2%[11.4 µM]	i
CCCCN(Cc1ccccc1)c1ncnc2nc[nH]c12	3.7%	nt	nt	?	nt
CCc1ccccc1NC(=O)Cn1nnc(-c2cccnc2)n1	-0.3%	i	2.6e-09	-1%	i
COc1ccccc1N1CCN(C(=O)CSc2nnc(NC(=O)c3ccco3)s2)CC1	0.0%	i	4.7e-09	0%	i
COCC(=O)NCCNc1nc2ccc(C)cc2cc1C	0.7%	i	3.7e-09	4%	i
C[C@H](c1ccccc1)N1C(=O)[C@H]2[C@@H]3[C@H](O)[C@H](O)CC(=O)[C@H]3CC[C@H]2C1=O	-0.2%[11.5 µM]	nt	nt	-8%[11.4 µM]	nt
COC(=O)Cn1nnc(-c2cccc(OC)c2)n1	-1.2%	i	1e-09	?	i
COc1ccc(CCNC(=O)c2cc3sc(Cl)cc3n2C)cc1OC	-0.7%	nt	nt	6%	nt
CCOC(=O)c1sc(=NC(=O)c2cccc(OC)c2)n(C)c1C	2.1%	i	6e-09	?	i
Cc1ccc(-n2ncc3c(=O)n(CC(=O)NCc4ccco4)cnc32)cc1	0.5%	i	1e-09	-1%	i
